Screens deposited in PubChem BioAssay by National Center for Advancing Translational Sciences (NCATS).
LASV entry inh: inhibitors of Lassa virus binding or cell entry | 300,000 tested, 1.2% active | Potency, µM (top dose mostly 37.9 µM), inactives show at the highest dose activity change, negative = inhibition, most hits filed as inhibitors | Lassa virus pseudotype entry inhibition, cell reporter; control for the full effect not named in the record | AID 540256; active means well fitted inhibition curve with a large enough effect; inconclusive means small, poorly fitted or top-dose-only effect, or effect the other way; inactive means flat fitted curve, though single readings scatter; tested in HEK293 cells; further: on the % scale 0 is the no-effect control and ±100 the full control effect; nearly all actives have a fitted effect of over 50% in size; luciferase read-out
RE007 growth inh: less growth of the S. pombe RE007 Vpr strain; Potency, µM (doses to about 92.2 µM), for the others: at the highest dose activity change, negative = less growth; 360,000 tested, 0.21% active; S. pombe RE007 Vpr strain, BacTiter-Glo ATP luminescence, 24 h; control for the full effect not named in the record; active = well fitted falling curve with a large enough effect; inconclusive = small, poorly fitted or top-dose-only effect; inactive = no such curve, though single readings can be large or run the other way;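 further: on the % scale 0 is the no-effect control and ±100 the full control effect; nearly all actives have a fitted effect of over 50% in size; the assay follows cell death caused by Vpr and the record does not say whether a fall means rescue or toxicity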
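Fission yeast strain RE007, carrying one chromosomally integrated HIV-1 vpr copy, was seeded at OD 0.01 in PMG+AL medium with 23 nL pinned compound. After 24 h at 30 °C and 99% humidity, viability was read by BacTiter-Glo luminescence.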
NS1 inh: influenza NS1 inhibition. AID 2326. S. cerevisiae slowed by influenza A NS1, growth recovery by OD600. 270,000 tested, 0.4% active. Potency, µM (top dose mostly 46.1 µM), without a hit: at the highest dose activity, positive = more growth; active means well fitted rising curve with a large enough effect; inconclusive means small, poorly fitted or top-dose-only effect; inactive means no such curve, though single readings can be large or run the other way; further: nearly all actives have a fitted effect of over 50% in size
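Growth recovery, yeast-based: influenza A NS1 expressed in S. cerevisiae causes slow growth, and suppressors are detected by OD600. The parent strain without NS1 is used as positive control.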
SARS PLpro yeast: SARS-CoV PLP inhibition in yeast | S. cerevisiae expressing SARS-CoV PLpro, growth rescue; control for the full effect not named in the record | Potency, µM (series often up to 32.9 µM), without a hit: at the highest dose activity, positive = growth rescue | 330,000 tested, 0.19% active; active means well fitted rising curve with a large enough effect; inconclusive means small, poorly fitted or top-dose-only effect; inactive means no such curve, though single readings can be large or run the other way; further: 0% is about no effect; nearly all actives have a fitted effect of over 55% in size; growth read by luminescence after 48 h
Marburg entry inh: Marburg virus entry inhibition. Marburg virus pseudotyped entry inhibition, cell reporter; control for the full effect not named in the record; about a third of the inactives were read at about 46 µM. Potency, µM (doses to about 37.8 µM), for inactives: at the top dose activity change, negative = inhibition, hits mostly inhibitors. 300,000 tested, 1.8% active. AID 540276; active = well fitted inhibition curve with a large enough effect; inconclusive = small, poorly fitted or top-dose-only effect, or effect the other way; inactive = flat fitted curve, though single readings scatter; tested in HEK293 cells; about a fifth of its hits are not listed in these tables; further: on the % scale 0 is the no-effect control and ±100 the full control effect; luciferase read-out
Cruzain inh Det: blocks cruzain activity in presence of Triton detergent | 200,000 tested, 0.43% active | purified cruzain, Z-FR-AMC fluorescence, 0.01% Triton | P25779 | Potency, µM, for the others: max response, negative = inhibition, actives largely listed as inhibitors;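 further: plate controls were neutral wells for no effect and buffer without enzyme for full effect; nearly all actives have a fitted effect of over 40% in size; top concentration of the series not given in the record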
Target sequence (P25779 123-467 limits assumed): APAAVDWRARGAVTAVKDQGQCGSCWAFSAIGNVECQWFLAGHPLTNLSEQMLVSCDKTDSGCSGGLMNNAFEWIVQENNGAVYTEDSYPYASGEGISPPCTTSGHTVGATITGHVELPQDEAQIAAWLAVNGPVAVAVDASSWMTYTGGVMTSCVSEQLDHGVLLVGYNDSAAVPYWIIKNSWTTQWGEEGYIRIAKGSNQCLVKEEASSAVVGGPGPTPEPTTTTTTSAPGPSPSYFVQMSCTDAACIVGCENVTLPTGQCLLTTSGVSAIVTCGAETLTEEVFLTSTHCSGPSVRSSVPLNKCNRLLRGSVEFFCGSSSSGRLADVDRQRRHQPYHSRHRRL
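Detergent-containing run (0.01% Triton X-100) in acetate buffer pH 5.5 with 5 mM DTT: enzyme at 1.5 nM final, 15 min compound preincubation at room temperature, then 2 uM Z-FR-AMC substrate. Activity taken as 60 s fluorescence increase at 360/450 nm.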
Cruzain noTriton: blocks cruzain activity in detergent-free assay; P25779; purified cruzain, Z-FR-AMC fluorescence, no detergent; Potency, µM, without a hit: max response, negative = inhibition, most hits filed as inhibitors; 200,000 tested, 2.3% active;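 further: plate controls were enzyme without inhibitor for no effect and buffer without enzyme for full effect; nearly all actives have a fitted effect of over 40% in size; top concentration of the series not given in the record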
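Detergent-free condition (0.00005% Triton X-100) in acetate buffer pH 5.5 with DTT. 1.5 nM enzyme and compound were pre-mixed 15 min, then 2 uM Z-FR-AMC substrate added; reaction progress from fluorescence change between first and third reads (60 s).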
2A StopGo: lowers the luciferase signal of an FMDV 2A StopGo reporter | Potency, µM (highest dose often 57.9 µM), for inactives: top-dose signal change, negative = less light | AID 1159524 | 410,000 tested, 1.2% active | human cells with a luciferase reporter of 2A StopGo recoding; control for the full effect not named in the record; active = well fitted falling curve with a large enough effect; inconclusive = small, poorly fitted or top-dose-only effect; inactive = no such curve, though single readings can be large or run the other way; tested in HEK293T cells; further: on the % scale 0 is the no-effect control and ±100 the full control effect; nearly all actives have a fitted effect of over 45% in size; luciferase light after 4 h
Numbers without * were called inactive; ? = inconclusive; · = no result given; & = joins results of further samples; [ ] = dose if it differs, or a comment. Unless noted, the call rests on the fitted dose curve; in most records, active means well fitted curve in the direction sought with a large enough effect; inconclusive means small, poorly fitted or top-dose-only effect, or another doubt; inactive means no such curve, though single readings can be large; an effect the other way counts as inactive or inconclusive. Potency means the concentration at half of the fitted maximal effect.

SMILES	LASV entry inh	RE007 growth inh	NS1 inh	SARS PLpro yeast	Marburg entry inh	Cruzain inh Det	Cruzain noTriton	2A StopGo
Cc1nn(-c2ccccc2)c(Cl)c1C1C(C#N)=C(N)Oc2c1c(=O)oc1ccccc21 (configuration not stated)	-2%	22%	0%	2%	-12%	-0.9%	16µM*	-24%
COc1ccc(CN2CCN(C(=O)CCC(=O)Nc3nnc(C4CCCCC4)s3)CC2)cc1F	-3%[46.1 µM]	8%	-12%	-5%	-28%[46.1 µM]	·	·	?
Cn1c(=O)c2c(nc(CN3CCN(Cc4ccccc4)CC3)n2Cc2ccc(F)cc2)n(C)c1=O	·	-9%	-2%	-1%	·	-4.2%	6%	-23%
COc1ccccc1NC(c1ccc(Cl)cc1)c1nnc(-c2cccc(F)c2)o1 (configuration not stated)	-2%[46.1 µM]	·	·	·	-27%[46.1 µM]	-6.4%	?	-6%
O=C(c1ccc(S(=O)(=O)N2CCCCC2)cc1)N1CCCC(C(F)(F)F)C1 (configuration not stated)	-7%	1%	·	1%	6%	·	·	0%
O=C(Cn1[nH]c(=O)c2ccccc2c1=O)OCC(=O)c1ccc(F)cc1	9%	?	·	-4%	9%[46.1 µM]	·	·	5%
CSc1ncccc1C(=O)OCC(=O)NC1CCCc2ccccc21 (configuration not stated)	17%	-2%	·	6%	7%	·	·	6%
COc1cc2[nH]c(=S)nc(NCCC(C)C)c2cc1OC	9%	-8%	·	2%	22%	·	·	-11%
CN(C)S(=O)(=O)c1cccc(N=C2SCCN2Cc2ccccc2)c1	?	5%	-4%	0%	?	·	·	?
Cc1ccc(C)c(C(=O)CN2C(=O)NC3(CCCCCCC3)C2=O)c1	-4%[46.1 µM]	3%	·	0%	10%[46.1 µM]	·	·	-8%
OC(CNCC(c1ccco1)N1CCCCC1)c1ccccc1 (configuration not stated)	1%	11%	2.2µM*	5%	?	-4.0%	7%	14%
COc1ccccc1OCC(=O)Nc1ccc(Cl)cc1C(=O)c1ccccc1	0%	-3%	12%	-10%	-1%	-6.5%	3%	-23%
O=C(O)C1CCN(C(=O)c2ccco2)CC1	-3%[46.1 µM]	-4%	·	0%	?	·	·	5%
O=C(c1ccco1)N1CCN(c2ccccc2F)CC1	18%	0%	-3%	-3%	-21%	3.7%	-5%	34%[activator]
COCC1CCN(C(=O)C2CCC(=O)N(Cc3ccc(Cl)cc3)C2)CC1 (configuration not stated)	7%	17%	-2%	1%	4%	·	·	-11%
Cc1ccc(N2C(=O)N(CC(=O)NC(N)=O)C(=O)C2C)cc1 (configuration not stated)	-8%	-4%	-1%	3%	10%[46.1 µM]	·	·	-17%
COc1ccc(CCNC(=O)c2cnc3sc(N4CCCCC4)nn3c2=O)cc1OC	2%[46.1 µM]	·	·	·	·	-4.7%	-6%	-28%
Cn1c(NNC(=O)c2c(F)cccc2F)cc(=O)n(C)c1=O	·	8%	?	2%	·	·	·	-18%
Cc1sc(NC(=O)Cc2ccc3c(c2)OCO3)nc1-c1ccc2c(c1)CCN2C(=O)c1ccc(F)cc1	?	-16%	17%	29%	?	-4.3%	6.3µM*	?
Cc1c(C(=O)C(=O)NCC2CCCO2)c2ccccc2n1C (configuration not stated)	6%	-3%	·	0%	?	·	·	-11%
Cc1ccccc1C(=O)Nc1sc(C)c(C)c1C(=O)c1ccccc1	?	-7%	9%	-22%	?	0.0%	3%	-13%
Cc1ccc(CNc2ncnc3c2nnn3C)cc1	7%[46.1 µM]	·	·	·	·	-0.5%	-9%	6%
C=CCNC(=S)N1CCN(Cc2ccccc2)CC1	·	-19%	5%	0%	·	·	·	5%
CCc1ccccc1NC(=O)c1ccc(CN2CCC(Cc3ccccc3)CC2)cc1	?	7%	-15%	2%	?	5.4%	18%	-15%
CC(C)CC(NC(=O)C(NC(=O)C1OC2OC(C)(C)OC2C2OC(C)(C)OC12)C(C)C)C(=O)O (configuration not stated)	·	0%	6%	14%	3%[46.1 µM]	·	·	-5%
COc1ccc(S(=O)(=O)Nc2cccc(-c3ccc4nncn4n3)c2)cc1	?	0%	·	-1%	?	·	·	0%
COc1cc(O)c(CC=C(C)C)c(O)c1C(=O)CCc1ccc(O)cc1	·	-8%	-92%	-11%	·	·	·	-10%
COCCNC(=O)C(c1ccc(C)cc1)N(CCOC)C(=O)CCC(=O)Nc1nccs1 (configuration not stated)	0%	10%	5%	2%	-13%[46.1 µM]	·	·	8%
COc1ccc(OC)c(NC(=O)COC(=O)CC2CCCCC2)c1	19%	9%	·	-7%	20%	·	·	-5%
CCOc1ccccc1NC1=C(OC)C(=O)C(Nc2ccccc2OCC)=C(OC)C1=O	12%	29%	·	·	?	·	·	-33%
O=C(NCc1ccco1)/C(=C/c1ccccc1F)NC(=O)c1ccccc1	24%[46.1 µM]	8%	8%	-1%	24%[46.1 µM]	·	·	10%
Cc1nn(CCC#N)c2c1P(=S)(N1CCCC1)OC(c1ccc(F)cc1)=N2 (configuration not stated)	-20%	-12%	-31%	4%	?	-4.7%	?	·
Cc1ccc[n+](-c2nc3ccccc3nc2C(=C=[N-])C#N)c1	-9%&1%	-5%&-7%	-1%&2%	-3%&-7%	?	-2.4%	-10%	-5%&4%
N#CC(C(=O)Nc1ccc(Cl)cc1)=C1Nc2ccccc2N1	19%	6%	-5%	-4%	7%	2.0%	?	-4%
Cc1noc(C)c1C(=O)OCC(=O)c1c(N)n(CC(C)C)c(=O)n(C)c1=O	-1%	1%	2%	-1%	-11%	0.8%	12%	-6%
Cc1ccc(N2C(=O)NC(NS(=O)(=O)c3ccc(Cl)cc3)(C(F)(F)F)C2=O)cc1C (configuration not stated)	-29%[46.1 µM]	·	·	·	1%[46.1 µM]	-4.6%	4%	7%
COC(=O)CCC(=O)N1CCC(CCC(=O)NCc2ccc(F)cc2)CC1	·	3%	7%	-1%	·	·	·	-2%
Cc1cc(NC(=O)CSc2ncc(CO)n2Cc2ccc(F)cc2)no1	·	8%	-1%	?	·	·	·	-24%
O=C(/C=C/c1ccc(Cl)cc1)N1CCN(c2ccccc2[N+](=O)[O-])CC1	0%	0%	18%	-52%	9%	-7.4%	3%	?
O=C(Nc1ccon1)c1ccc(S(=O)(=O)N2CCCCCC2)cc1	1%	15%	?	3%	?	0.9%	-10%	18%
Cc1ccc(OCC(=O)N(C)CCc2ccccn2)cc1	25%	16%	3%	1%	8%&8%	-3.3%	-3%	0%
COc1ccc(-n2c(C)cc(C=O)c2C)cc1Cl	-27%	-8%	?	-1%	?	2.7%	2%	-20%
CNC(=O)/C(C#N)=C/c1c(N2CCCCCC2)nc2ccccn2c1=O	·	-8%	-1%	2%	·	·	·	?
O=C(NCc1ccccn1)c1ccc(OC2CCN(Cc3ccccc3O)CC2)cc1	-3%	?	-8%	-5%	-16%	·	·	?
O=c1[nH]c(=S)[nH]c2c1C(c1cc([N+](=O)[O-])c(N3CCOCC3)cc1N1CCOCC1)O2 (configuration not stated)	-11%	-3%	·	0%	0%[14.2 µM]	·	·	-4%
c1ccn(-c2ncnc3sc4c(c23)CCCC4)c1	-2%	-18%	-14%	3%	28%	1.1%	-11%	?
Fc1ccc(CNC(=S)NCc2cccc(Cl)c2)cc1	?	-28%	?	-1%	1%[46.1 µM]	·	·	10%
Oc1ccc(-c2nnc(SCC3CCCCC3)o2)cc1	0%	-4%	-13%	-12%	24%	-12%	8%	48%[activator]
Cc1cc(C)c(S(=O)(=O)NCc2cccs2)cc1C	-1%[46.1 µM]	-14%	-42%	-4%	-1%[46.1 µM]	·	·	64%[activator]
O=C(O)c1ccc(NS(=O)(=O)c2ccc3c(c2)OCCO3)cc1	·	6%	5%	4%	·	-0.1%	-6%	-14%
Next structures.
SMILES	LASV entry inh	RE007 growth inh	NS1 inh	SARS PLpro yeast	Marburg entry inh	Cruzain inh Det	Cruzain noTriton	2A StopGo
O=C(COC(=O)c1cnc(Cl)c(Cl)c1)NCc1cccs1	6%	-7%	-1%	0%	?	·	·	-6%
COC(=O)c1ccc(C23CC4(C2)[C@H](CN(Cc2cccnc2)[C@@H]4c2ccccc2)C3c2ccc(Cl)nc2)cc1 (some centres not stated)	·	7%	4%	-7%	-3%	-2.7%	-4%	-14%
COc1cc(NC(=O)CCC2CCCC2)cc(-n2cnnn2)c1	-2%	-13%	-6%	5%	1%	-2.0%	-4%	37%[activator]
Cc1ccc(C(=O)c2cn(Cc3ccccc3)c3nc(C)ccc3c2=O)cc1	23%[46.1 µM]	·	·	·	?	-8.4%	?	-15%
Cc1ccc(-n2nnc3c(=O)n(CC(=O)OCc4ccccc4)cnc32)cc1	·	1%	3%	-1%	·	-2.7%	-4%	?
CC(C)(C)C(=O)Nc1cc(NC(=O)C(C)(C)C)cc(C(=O)NNC(=O)c2ccncc2)c1	·	1%	-11%	19%	·	·	·	-17%
Cc1ccc(SCc2cn3c(C)cc(C)nc3n2)cc1	-3%[46.1 µM]	1%	-4%	0%	?	·	·	8%
O=C1c2ccccc2C(=O)N1OCc1ccc(Cl)cc1	12%	-1%	-1%	-6%	-3%	0.5%	-6%	12%
CCOc1cc(C)c(Cl)cc1S(=O)(=O)NCC1CCCO1 (configuration not stated)	15%	-4%	5%	8%	0%[46.1 µM]	-4.6%	4%	69%[activator]
COc1ccc(-c2cc(C(=O)Nc3sc4c(c3C(N)=O)CCC(C)C4)no2)cc1 (configuration not stated)	?	·	·	·	-6%[46.1 µM]	-2.1%	-4%	-6%
COc1ccc(CN2C(=O)C(O)(CC(=O)c3ccc4c(c3)OCO4)c3ccccc32)cc1OC (configuration not stated)	?	2%	-1%	2%	-13%	-2.0%	-24%	-20%
O=C(Nc1cccnc1)c1cc(S(=O)(=O)N2CCCCC2)c(Cl)cc1Cl	·	-10%	7%	-1%	2%[46.1 µM]	·	·	?
CCC(=O)N1CCc2cc(Br)cc(S(=O)(=O)CCC(=O)Nc3ccc(Cl)cc3)c21	4%[46.1 µM]	·	·	·	-6%[46.1 µM]	-2.5%	1%	-7%
